# High-throughput results (PubChem)
# rRNA inh HTS: inhibitors of bacterial rRNA selective over humanized ribosomes; AID 720706; E. coli WT GFP vs humanized-ribosome RFP mutants, fluorescence, 24 h; active compounds read low; DMSO median 0, no signal -100; actives 1.6% (n = 350,000); GFP signal change (wild-type ribosome), % (no concentration beside the values);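 active = significant combined selectivity score with lowered wild-type GFP, culture density cut under 30%, mutant RFP and density less affected; inactive = any of these conditions unmet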; note: one replicate is shown; some compounds called inactive have numbers as strong as hits
# T cruzi repl: blocks replication of Trypanosoma cruzi. T. cruzi beta-gal in NIH3T3, luminescence, 90 h. inhibition, % (test concentration not listed). actives 1.4% (n = 300,000). AID 1885;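 active = mean inhibition across valid replicates above about 55%, limit read from the data; inconclusive = mean below that limit but half or more replicates reach it; inactive = mean below it, under half of replicates reach it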;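 note: signal also drops with host cell toxicity which is not excluded here; 0% = plate median of DMSO wells and 100% = zero luminescence signal; higher percent means less beta-gal luminescence so fewer parasites; stock transfer was 50 nL into about 50 µL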
# FGF22 binding: shifts melting point of recombinant human FGF22; recombinant FGF22 thermal shift, SYPRO orange fluorescence; percent of sucrose octasulfate shift, DMSO zero; Q9HCT0; actives 1.5% (n = 340,000); calls only at 9.99 µM;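 active = melting point raised past a set limit in the mean and every replicate; inconclusive = no clear call; three in four hits are not shown here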
# Target sequence (Q9HCT0 whole entry, looked up): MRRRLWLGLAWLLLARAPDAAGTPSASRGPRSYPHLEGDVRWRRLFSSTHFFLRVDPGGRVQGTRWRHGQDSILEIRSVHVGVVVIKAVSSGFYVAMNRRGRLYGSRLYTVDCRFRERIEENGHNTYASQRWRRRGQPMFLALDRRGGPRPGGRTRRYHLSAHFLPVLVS
# RanGTP-Imp inh: inhibitors of RanGTP-importin-beta interaction, primary screen, biochemical, FRET, CFP-Ran, YFP-importin-beta, homogeneous; cell-free CFP-Ran/YFP-importin-beta FRET ratio; actives 1.1% (n = 300,000); inhibition, % (concentration not given with the values);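 active = most replicates above 15%; inconclusive = exactly half above 15%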;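 note: 0% = DMSO wells and 100% = Ran loaded with GDP instead of GTP; wells of about 40 µL received 100 nL stock; the first replicate is given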
# ALR inh: blocks human ALR sulfhydryl oxidase activity; inhibition, % (no concentration beside the values); purified ALR, DTT oxidation, H2O2 HRP-luminol luminescence; actives 3.8% (n = 290,000);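 active = mean and each replicate at 75% or more; inconclusive = only one of the two met; inactive = neither met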;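 note: stock transfer was 7.5 nL into about 7.5 µL; 0% = neutral wells and 100% = wells with inactivated enzyme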
# Target sequence (P55789 whole entry, looked up): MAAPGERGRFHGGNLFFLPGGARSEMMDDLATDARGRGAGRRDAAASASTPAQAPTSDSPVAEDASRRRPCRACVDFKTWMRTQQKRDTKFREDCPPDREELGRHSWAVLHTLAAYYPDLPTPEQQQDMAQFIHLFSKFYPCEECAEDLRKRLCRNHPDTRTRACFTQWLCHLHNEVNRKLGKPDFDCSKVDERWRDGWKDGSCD
# MLL AF4-AF9 inh: inhibitors of human MLL-AF4/AF9 interaction; AID 651704; AlphaScreen, biotin-AF4 peptide binding to FLAG-AF9; actives 0.47% (n = 350,000); inhibition, % at 10 µM; P42568;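 active = every replicate reaching a set inhibition limit, whatever the replicate mean, cut at about 25% in these data; inconclusive = mean inhibition reaches that limit but some replicates miss it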;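 note: 0% = plate neutral control median and 100% = total signal loss; the record names both 10 and 1 µM as test concentration; the first replicate is given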
# Target sequence (P42568 whole entry, looked up): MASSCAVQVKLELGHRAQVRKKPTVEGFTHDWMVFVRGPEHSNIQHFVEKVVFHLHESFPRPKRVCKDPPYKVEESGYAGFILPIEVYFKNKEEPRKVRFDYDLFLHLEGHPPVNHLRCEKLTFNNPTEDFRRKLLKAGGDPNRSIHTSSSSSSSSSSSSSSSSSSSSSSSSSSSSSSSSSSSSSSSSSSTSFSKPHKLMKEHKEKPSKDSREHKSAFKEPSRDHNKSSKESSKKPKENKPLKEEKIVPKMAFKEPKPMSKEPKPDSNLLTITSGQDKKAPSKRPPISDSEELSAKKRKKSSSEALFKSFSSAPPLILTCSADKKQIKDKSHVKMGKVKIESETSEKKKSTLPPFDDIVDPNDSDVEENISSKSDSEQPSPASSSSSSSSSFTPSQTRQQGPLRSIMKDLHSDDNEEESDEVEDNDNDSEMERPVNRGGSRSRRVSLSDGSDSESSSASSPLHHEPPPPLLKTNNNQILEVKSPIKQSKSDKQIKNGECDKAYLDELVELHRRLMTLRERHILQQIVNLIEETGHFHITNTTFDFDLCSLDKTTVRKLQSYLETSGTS
# Beta cell apopt: blocks beta cell apoptosis | AID 435005 | INS-1E cytokine-induced death, ATP luminescence, 48 h; percent of positive-control rescue, neutral wells zero | actives 0.8% (n = 300,000) | protection from apoptosis, % (test concentration not listed);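 active = all replicates at 75% or more, or half of them and the mean; inconclusive = half reach 75% but not the mean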;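 note: 0% = cytokine-treated negative control wells and 100% = positive control rescue; higher means more ATP so stronger rescue from cytokine killing; wells of about 40 µL received 100 nL stock; the first replicate is given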
# Calb FLC: affects C. albicans growth with fluconazole. C. albicans CaCi-2 (fluconazole-resistant clinical isolate) + fluconazole, Alamar Blue growth, 48 h. actives 0.57% (n = 300,000). growth inhibition, % (concentration not given with the values);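 active = most replicates above 75%; inconclusive = exactly half above 75%; inactive = most below 75%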;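 note: all wells also contain fluconazole at 8 µg/ml as a sub-toxic cotreatment; 0% = median of DMSO wells and 100% = median of geldanamycin control wells; wells of about 8 µL received 7.5 nL stock; the first replicate is given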
# rRNA inh HTS OD600: recorded beside rRNA inh HTS, whose call it bears; OD600 change, %; measured here: OD600 growth;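 optical density of the mix in the first replicate; 0 = DMSO median and -100 = no signal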
# rRNA inh HTS RFP: further read-out of rRNA inh HTS, marked with its call; RFP signal change, %; measured here: RFP humanized mutant strains;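 first replicate; 0 = DMSO median and -100 = no signal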
# Active calls of the source: *; i = inactive; ? = inconclusive; nt = no result given.
SMILES,rRNA inh HTS,rRNA inh HTS OD600,rRNA inh HTS RFP,T cruzi repl,FGF22 binding,RanGTP-Imp inh,ALR inh,MLL AF4-AF9 inh,Beta cell apopt,Calb FLC
Cn1ncn2c(=O)c3c(nc12)-c1ccccc1CC31CCCC1,-2,-11,-5.5,8,i,0.5,0,-5.0,-8,-5
Cc1ccc(C(=O)Nc2ccccc2C(=O)Nc2ccccn2)cc1Cl,1,10,-1.6,0,i,5.0,-5,-0.8,12,-3
Cc1cc(Br)cc(Br)c1OCC(=O)NNC(=O)CCC(=O)NCc1ccccc1,13,16,2.7,nt,i,nt,-12,-0.9,-8,-13
Cc1ccc(Cn2c(N)c(S(=O)(=O)c3cccs3)c3nc4ccccc4nc32)cc1,nt,nt,nt,-6,nt,nt,-20,nt,-4,-3
COc1ccc(/C=N/NC(=O)CNc2n[nH]c(=O)[nH]c2=O)cc1OC,11,16,6.0,-15,i,6.9,-20,-4.8,-7,2
COc1ccc(CNC(=O)CNC(c2ccccc2)c2ccccc2)cc1OC,-28*,-17*,1.5*,5,i,-0.5,5,1.7,-3,1
COc1ccc(N2CCN(S(=O)(=O)c3ccc(OC)c(C(=O)N4CCCC4)c3)CC2)cc1,-1,4,0.5,6,i,1.7,nt,2.0,13,-11
Cc1cc2[nH]c(=O)c(=O)[nH]c2cc1S(=O)(=O)Nc1cccc(C)c1C,7,4,2.0,-11,i,4.2,1,3.6,1,10
C/C=C(/C)C(=O)Nc1cccc(C2=NOC3(C2)C[C@H](C(N)=O)N(C(=O)c2ccccc2)C3)c1 (stereo partly drawn),3,5,8.3,-14,i,-0.9,-4,3.7,-2,-2
S=C(NCCCN1CCOCC1)NC1CC1,26,30,4.2,-12,i,-2.0,-30,?,2,25
Cc1ccccc1C(=O)NNC(=O)/C=C\C(=O)O,10,2,-5.9,-19,i,2.0,7,7.8,0,-5
CC1(C)CC(=O)c2cc(NC(=O)c3ccc(F)cc3)c(=O)oc2C1,16,16,-4.0,12,i,0.3,6,-1.2,0,-4
O=C(COC(=O)c1cnccn1)Nc1ncc(C(F)(F)F)cc1Cl,4,8,-1.0,nt,i,nt,-5,-3.1,-4,nt
CC1(C)Cc2c(sc3nc4n(c(=N)c23)CCCCC4)CO1,nt,nt,nt,-9,nt,-0.6,nt,nt,-16,-7
CCOC(=O)C(NCc1ccccn1)(NC(=O)c1cccnc1)C(F)(F)F (stereo not drawn),nt,nt,nt,-12,nt,1.8,0,nt,-4,-4
CSc1ncccc1C(=O)Nc1cccc(S(=O)(=O)N2CCCC2)c1,-2,3,-0.7,nt,i,nt,-2,-1.1,-1,nt
Nc1ccc(-c2cc(-c3cccc(N)c3)nc(-c3ccccc3)n2)cc1,2,1,-1.8,41,i,3.9,-6,-0.9,-9,-11
COc1ccc(S(=O)(=O)NCC(=O)N(CC(=O)NCc2ccccc2)Cc2ccco2)cc1,1,-1,-0.3,-2,i,3.7,5,1.3,-5,1
O=C1/C(=C/c2ccc(Br)cc2)Oc2cc(O)ccc21,1,-1,-3.5,-8,i,-38,2,0.8,-3,-1
CCOc1ccc(C(=O)NCC(=O)OCCCC(=O)c2ccc(F)cc2)cc1OCC,-2,-6,0.1,nt,i,nt,4,0.3,-1,nt

# Next section (3 carried over from the part before).
SMILES,rRNA inh HTS,rRNA inh HTS OD600,rRNA inh HTS RFP,T cruzi repl,FGF22 binding,RanGTP-Imp inh,ALR inh,MLL AF4-AF9 inh,Beta cell apopt,Calb FLC
COc1ccc(S(=O)(=O)NCC(=O)N(CC(=O)NCc2ccccc2)Cc2ccco2)cc1,1,-1,-0.3,-2,i,3.7,5,1.3,-5,1
O=C1/C(=C/c2ccc(Br)cc2)Oc2cc(O)ccc21,1,-1,-3.5,-8,i,-38,2,0.8,-3,-1
CCOc1ccc(C(=O)NCC(=O)OCCCC(=O)c2ccc(F)cc2)cc1OCC,-2,-6,0.1,nt,i,nt,4,0.3,-1,nt
Cc1nc2ncc(Br)cc2[nH]1,nt,nt,nt,-6,i,4.6,1,-0.7,0,-8
O=C(COc1ncnc2sccc12)Nc1cccc(S(=O)(=O)N2CCOCC2)c1,2,4,2.4,nt,i,nt,nt,-0.2,1,nt
CC(C)(Oc1ccc(Cl)cc1)C(=O)NC1CC1,6,10,-2.1,-4,i,-3.1,-3,-1.2,0,-1
Cc1ccc(C2CC(=O)Nc3cc4c(cc32)OCCO4)s1 (stereo not drawn),nt,nt,nt,-6,nt,3.1,0,nt,-4,0
CC(C)(C)c1ccc(/C=N/NC(=S)Nc2cccnc2)cc1,nt,nt,nt,6,nt,1.6,2,nt,6,?
O=C(Cc1ccc(Cl)c(Cl)c1)Nc1ccc2[nH]c(=O)[nH]c2c1,4,3,-2.8,-4,i,-4.4,30,0.0,2,-2
CCOC(=O)/C(=C/C=C1\Sc2cc(C)c(C)cc2N1CC)C(C)=O,38,-2,61,36,i,9.0,nt,-1.4,nt,8
O=C(NCc1ccco1)C(c1ccccc1F)N(Cc1cccnc1)C(=O)Cn1nnc2ccccc21 (stereo not drawn),nt,nt,nt,66*,nt,2.3,nt,nt,0,0
COc1ccc(NC(=O)c2ccc(Br)o2)c([N+](=O)[O-])c1,nt,nt,nt,4,nt,-6.5,1,nt,-3,-3
Cc1ccc(C(=O)NNC(=O)CSc2nnc(-c3ccncc3)n2-c2ccc(C)cc2)cc1,nt,nt,nt,-2,nt,0.5,17,nt,2,4
CCOC(=O)c1ccc(NC(=O)Cn2cccc2)cc1,-4,-13,-0.8,-24,i,9.1,10,3.2,-2,32
CN=C(NC)SC1CC(=O)N(c2ccccc2)C1=O (stereo not drawn),nt,nt,nt,-32,nt,2.0,-15,nt,-6,-3
CCN(C(=O)CSc1nnc(Nc2ccc(OC)cc2)s1)C1CCS(=O)(=O)C1 (stereo not drawn),1,12,1.3,nt,i,nt,5,-0.7,8,nt
CSc1ccc(/C=C2\C(=N)N3N=C(CC(=O)N4CCOCC4)SC3=NC2=O)cc1,8,9,-1.0,-25,i,1.4,6,-1.8,nt,-6
Cn1nnnc1SCCNC(=O)C1CCC(=O)N(Cc2ccccc2F)C1 (stereo not drawn),-1,-8,-0.9,4,i,1.3,-11,-1.8,5,-1
CCN1C(=NCCOC)N[C@@H](c2ccccc2)[C@H](C(=O)OC)[C@H]1C,6,5,2.9,nt,i,nt,-3,-4.0,-5,nt
CCC(C)N(NC(C)=O)c1nc(Cl)nc(NC(C)C)n1 (stereo not drawn),nt,nt,nt,11,nt,2.4,0,nt,2,9
Cc1ccc(Nc2nc(COC(=O)COc3ccc(C=O)cc3)cs2)cc1,nt,nt,nt,2,nt,-1.0,15,nt,-5,-1
Cc1cccc(NC(=O)C2C3CCC4C(CCC32)C4(Cl)Cl)c1 (stereo not drawn),-15,-30,1.5,-5,i,4.0,-1,5.4,4,-18
CCn1cc(C(=O)N[C@H](C(=O)O)C(C)C)c(=O)c2cc3c(cc21)OCO3,-47,-76,-14,-2,i,-1.0,0,0.3,2,-1

# A draw from above in order of molecular weight, high to low:
SMILES,rRNA inh HTS,rRNA inh HTS OD600,rRNA inh HTS RFP,T cruzi repl,FGF22 binding,RanGTP-Imp inh,ALR inh,MLL AF4-AF9 inh,Beta cell apopt,Calb FLC
COc1ccc(NC(=O)c2ccc(Br)o2)c([N+](=O)[O-])c1,nt,nt,nt,4,nt,-6.5,1,nt,-3,-3
O=C(Cc1ccc(Cl)c(Cl)c1)Nc1ccc2[nH]c(=O)[nH]c2c1,4,3,-2.8,-4,i,-4.4,30,0.0,2,-2
CC(C)(C)c1ccc(/C=N/NC(=S)Nc2cccnc2)cc1,nt,nt,nt,6,nt,1.6,2,nt,6,?
Cc1ccc(C2CC(=O)Nc3cc4c(cc32)OCCO4)s1 (stereo not drawn),nt,nt,nt,-6,nt,3.1,0,nt,-4,0
CN=C(NC)SC1CC(=O)N(c2ccccc2)C1=O (stereo not drawn),nt,nt,nt,-32,nt,2.0,-15,nt,-6,-3

# (next part)
SMILES,rRNA inh HTS,rRNA inh HTS OD600,rRNA inh HTS RFP,T cruzi repl,FGF22 binding,RanGTP-Imp inh,ALR inh,MLL AF4-AF9 inh,Beta cell apopt,Calb FLC
Cc1ccc(C(=O)Nc2cc(Cl)ccc2OC(=O)c2ccc(C)cc2)cc1,nt,nt,nt,-8,nt,0.7,2,nt,-3,13
COc1ccc2nc3oc(C(=O)N4CCN(c5ccccc5F)CC4)cc3cc2c1,nt,nt,nt,1,nt,3.6,-1,nt,6,-5
CCCCOc1ncnc2c1[nH]c1ccc(F)cc12,nt,nt,nt,-23,nt,4.5,-4,nt,110*,20
CCNC(=O)CC1SC(=Nc2ccc(Cl)cc2)N(CC)C1=O (stereo not drawn),nt,nt,nt,-6,nt,-0.5,-15,nt,-2,-10
CC1Cc2cc(-c3csc(NC(=O)Cc4ccccc4)n3)ccc2N1S(C)(=O)=O (stereo not drawn),-26*,0.5*,-0.9*,33,i,-1.5,-5,2.4,9,-13
COc1ccc(CC(NC(C)=O)C(=O)NC2CCN(C(=O)C3CCCCC3)CC2)cc1OC (stereo not drawn),5,9,-2.4,-7,i,-1.1,nt,-0.4,-8,-2
Cc1cc(C)cc(NC(=S)NCc2cccnc2)c1,-9,-3,-6.2,1,i,?,nt,-21,-5,-5
Cc1nnc(NC(=O)c2ccc3c(c2)C(=O)N(CCC(C)C)C3=O)s1,nt,nt,nt,-8,nt,-1.6,3,nt,-2,14
Cc1ccc(CN(C)S(=O)(=O)c2c(C)noc2/C=C/N(C)C)cc1,1,-4,-1.6,-1,i,-2.5,32,1.7,-8,-6
CN1C(=O)N(CC(=O)Nc2nccs2)C(=O)C12CCCCC2,5,12,-2.6,nt,i,nt,2,-3.8,-2,nt
CCOC(=O)C1=C(C)N=c2s/c(=C\c3ccc(OCC(=O)O)cc3)c(=O)n2C1c1ccccc1 (stereo not drawn),12,9,3.3,-8,i,10.0,98*,7.5,-2,-10
COc1ccccc1/C=N/NC(=O)C1=NNC(c2ccccc2)(c2ccccc2)C1,nt,nt,nt,3,nt,1.8,nt,nt,-5,2
O=C(NCc1ccccc1CN1CCCC1)c1ccc(Cl)c(N2CCCC2=O)c1,8,2,6.6,nt,i,nt,2,0.2,-1,nt
CCCOc1ccc(N2C(=O)CC(N3CCN(C(=O)c4ccco4)CC3)C2=O)cc1 (stereo not drawn),nt,nt,nt,-13,nt,-1.1,-4,nt,-2,16
Cc1ccc(NC(=O)CN2C(=O)S/C(=C\c3cc(C)n(C)c3C)C2=O)cc1,nt,nt,nt,28,nt,-3.6,3,nt,-3,-6
Cc1ccccc1-n1c2nc(=O)n(C)c(=O)c-2cc2ccccc21,25,12,4.8,9,i,136*,nt,0.0,nt,28
O=C(O)CC(NC(=O)CC(c1ccccc1)c1ccccc1)c1cccc([N+](=O)[O-])c1 (stereo not drawn),-2,10,6.2,1,i,0.9,6,-4.3,-4,1
O=C(CNC(=S)NC(=O)C1CCCCC1)c1ccccc1,12,-1,3.0,4,i,0.0,-4,-0.4,-1,0
CN(CC(=O)Nc1cccc([N+](=O)[O-])c1)S(=O)(=O)c1ccccc1,2,1,1.6,4,i,5.6,-3,2.7,7,23

# An excerpt; the hit share may differ from the screen's.
